From PubChem BioAssay
A488 fluor = compound fluoresces in the A488 spectral region | max dye equivalency, M | AID 591 | actives 0.1% (n = 59,000) | compound autofluorescence, A488 spectral region, dye equivalency; stronger effect = higher value; active = above 10 nM dye equivalent; inconclusive = 1 to 10 nM; inactive = 1 nM or less; about half of its hits are not listed in these tables;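 further: highest value over a series up to 38 µM; compound alone in buffer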
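Spectroscopic profiling in the A488 region: compounds in pH 8.0 Tris (100 mM), 15 min RT, CCD imaging with 480 nm excitation and 540 nm emission; responses normalized against A488 dye standards.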
AID923 = qHTS Assay for Allosteric/Competitive Inhibitors of Caspase-1: Spectroscopic Profiling in AFC Spectral Region | compound fluorescence, AFC spectral region (405/520 nm); almost no hit is shown here | actives 1.1% (n = 75,000) | Potency, µM (titrated, usually from 57.5 µM), inactives show at the top dose fluorescence increase, most hits filed as activators; active means well fitted activation curve with a large enough effect; inconclusive means small, poorly fitted or top-dose-only effect;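 further: potency means the concentration at half of the fitted maximal effect; 0% is about no effect; scaled to a free AFC standard on each plate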
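Compound autofluorescence profiled at 405 nm ex/520 nm em during kinetic caspase 1 run (50 nM enzyme, 5 uM Ac-WEHD-AFC, HEPES pH 7.5, 10 mM DTT). Titration up to 57 uM; baseline from regression intercept, normalized to AFC standard curve.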
TSHR agonist = agonists of human thyroid stimulating hormone receptor | HEK293-CNG-TSHR cells (CNG channel as cAMP sensor), membrane potential dye, cAMP | Potency, µM (highest dose often 57.1 µM), inactives show top-dose activation, actives largely listed as activators | actives 0.48% (n = 73,000) | AID 926; active = well fitted activation curve of enough size with the parental cells flat; inconclusive = any curve in the parental cells; inactive = parental cells flat and receptor cells flat or falling; further: potency means the concentration at half of the fitted maximal effect; % of control where 0% means no effect; weak receptor curves with flat parental cells got no call and are not listed
Target sequence (P16473 whole entry, looked up): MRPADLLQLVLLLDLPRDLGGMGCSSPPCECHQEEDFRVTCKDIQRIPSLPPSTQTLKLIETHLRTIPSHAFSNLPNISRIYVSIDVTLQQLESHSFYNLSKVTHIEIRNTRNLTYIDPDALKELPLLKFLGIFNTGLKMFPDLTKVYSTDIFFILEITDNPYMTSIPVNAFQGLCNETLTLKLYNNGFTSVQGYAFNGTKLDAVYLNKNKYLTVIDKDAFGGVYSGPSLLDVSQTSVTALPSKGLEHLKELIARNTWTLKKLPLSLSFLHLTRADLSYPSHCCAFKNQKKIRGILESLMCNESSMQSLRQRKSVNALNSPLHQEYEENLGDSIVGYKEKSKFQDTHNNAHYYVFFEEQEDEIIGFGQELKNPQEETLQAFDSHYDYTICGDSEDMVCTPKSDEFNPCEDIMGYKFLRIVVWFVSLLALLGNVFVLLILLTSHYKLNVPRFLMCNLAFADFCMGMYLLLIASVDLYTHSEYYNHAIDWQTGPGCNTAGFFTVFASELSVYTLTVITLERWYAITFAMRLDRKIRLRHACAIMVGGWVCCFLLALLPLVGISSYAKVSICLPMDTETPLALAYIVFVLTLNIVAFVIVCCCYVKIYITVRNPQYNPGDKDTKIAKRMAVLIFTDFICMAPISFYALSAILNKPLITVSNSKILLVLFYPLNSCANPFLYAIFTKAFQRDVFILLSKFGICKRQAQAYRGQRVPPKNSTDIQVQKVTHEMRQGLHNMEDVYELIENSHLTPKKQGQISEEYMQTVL
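HEK 293 cells stably expressing TSHR and a cAMP-gated CNG channel; parental CNG-only cells as counterscreen. Cells preloaded 60 min with membrane potential dye plus 100 uM RO 20-1724, then compound 30 min; fluorescence read at 590 nm.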
Resorufin fluor = compounds fluorescent in resorufin spectral region; actives 0.04% (n = 59,000); max dye-equivalent concentration, M; Compound fluorescence, resorufin region 547/598 nm, buffer; stronger effect = higher value; active = above 10 nM dye equivalent; inconclusive = 1 to 10 nM; inactive = 1 nM or less; a few of its hits are not listed in these tables; further: highest value over a series up to 38 µM
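Read-out: intrinsic compound fluorescence at ex 547/em 598 nm after 15 min at RT in pH 8.0 Tris (100 mM). Values expressed as resorufin-equivalent concentration from per-plate standard series.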
A647 autofl = compound fluoresces in the A647 spectral region; Compound fluorescence, A647 channel (570/671 nm), Tris buffer; max dye-equivalent concentration, M; AID 592; 59,000 tested, under 10 active; active means above 1 µM dye equivalent; inconclusive means 0.1 to 1 µM; inactive means 0.1 µM or less;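 further: values scaled relative to a standard on each plate; highest value over a series up to 38 µM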
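Compounds pinned into 100 mM Tris pH 8.0, 15 min at room temperature, then read with 570 nm excitation/671 nm emission filters. Fluorescence normalized to an on-plate six-point Alexa 647 standard curve, giving dye-equivalent concentration per compound concentration.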
Active calls of the source: *; i = inactive; u = inconclusive; x = no result given; [ ] = dose if it differs, or a comment.

SMILES | A488 fluor | AID923 | TSHR agonist | Resorufin fluor | A647 autofl
CNC(=O)C1(CC(C)C)C=CCN1C(=O)c1ccccc1 (centres undefined) | x | 1.9% | 12% | x | x
Cc1ccccc1-c1nc(N2CCOCC2)c2ccccc2n1 | i | -1.0% | u | i | 1e-09
COCCn1c(=S)[nH]c2cc(C(=O)N3CCN(Cc4ccc5c(c4)OCO5)CC3)ccc2c1=O | i | 1.3% | 16% | i | 1e-09
CC(=O)c1cc(C)ccc1OC(=O)c1cccnc1 | i | -1.9% | 2% | i | 3.1e-09
Cc1ccc2cc3c(N)c(C(=O)N4CCOCC4)sc3nc2c1 | i | 3.2% | -4% | i | 7.5e-09
O=C(Nc1ccccc1)N1CCCC2(CCN(C(=O)c3cc(C(F)(F)F)cc(C(F)(F)F)c3)CC2)C1 | i | -3.0% | 25µM* | i | 1e-09
Cc1ccc(C(=O)CC2(O)C(=O)N(CCc3ccccc3)c3ccc(Br)cc32)o1 (centres undefined) | i | 0.4% | x | i | 2.6e-09
CCN1CCN(CCCOc2ccc(-c3ccccc3)cc2)CC1 | i | -0.8% | 23% | i | 1e-08
CN1CCN(c2cc(-c3ccccc3Cl)ncn2)CC1 | i | 0.8% | 5% | i | 1.2e-08
O=C(OCc1ccccc1Cl)c1ccc(-n2cnnc2)cc1 | i | 0.8% | 29% | i | 1.8e-08
O=C(NCCN1CCCCCC1)C1CCN(S(=O)(=O)N2CCOCC2)CC1 | i | 0.5% | -3% | i | 1.6e-09
CCOC(=O)c1ccccc1NC(=O)c1c(O)c2ccccc2n(CC)c1=O | i | -2.4% | 3% | i | 8.7e-09
COc1ccc(CNc2ccnc(-c3ccc(N(C)C)cc3)n2)c(OC)c1 | i | u | 5% | i | 1.8e-09
COc1ccc(CCNS(=O)(=O)c2cccc3nsnc23)cc1OC | i | -2.0% | 7% | i | 1e-09
COc1ccc(CCn2c(=N)c(C#N)cc3c(=O)n4ccccc4nc32)cc1 | i | x | x | i | 2.7e-09
CC(=O)N1CCCc2cc(S(=O)(=O)N(C)Cc3ccccc3)ccc21 | i | -0.7% | 3% | i | 1e-09

Part of the list above in order of formula weight, high to low.
SMILES | A488 fluor | AID923 | TSHR agonist | Resorufin fluor | A647 autofl
COc1ccc(CCNS(=O)(=O)c2cccc3nsnc23)cc1OC | i | -2.0% | 7% | i | 1e-09
COc1ccc(CCn2c(=N)c(C#N)cc3c(=O)n4ccccc4nc32)cc1 | i | x | x | i | 2.7e-09
CN1CCN(c2cc(-c3ccccc3Cl)ncn2)CC1 | i | 0.8% | 5% | i | 1.2e-08

More structures.
SMILES | A488 fluor | AID923 | TSHR agonist | Resorufin fluor | A647 autofl
COc1cccc(/C=N/n2c(CO)nc3ccccc32)c1OC | i | -2.3% | 27% | i | 1e-09
O=C(NCCN1CCOCC1)c1cc(=O)[nH]c2ccc(Br)cc12 | i | 0.6% | 0% | i | 2e-08
CCc1c(C(=O)Nc2ccc(OC)cc2)[nH]c(C)c1C(C)=O | i | -1.3% | -11% | i | 1e-09
COC(=O)N1CCC2(CCCN(C(c3ccccc3)c3ccccc3)C2)CC1 | i | 0.9% | u | i | 1.9e-09
CC1Cc2ccccc2N1C(=O)C1CCCN(S(=O)(=O)c2cccc3cccnc23)C1 (centres undefined) | x | 2.7% | 12% | x | x
Cc1cc2c(=O)n(Cc3ccco3)c(SCC(=O)NCc3ccco3)nc2s1 | i | -2.4% | x | i | 1.8e-08
COc1cc2c(cc1OC)C(c1ccccc1O)N(C1CC(=O)N(c3ccccc3)C1=O)CC2 (centres undefined) | x | 1.6% | -15% | x | x
c1ccc(-c2nnc(-c3ccccn3)nn2)nc1 | i | 0.1% | -4% | i | 1e-09
COC(=O)c1ccc(C(=O)OC)c(NC(=O)c2oc(C)nc2C)c1 | i | 1.3% | 7% | i | 2.9e-08
COc1cc2c3cc1Oc1c(OC)c(OC)cc4c1[C@@H](Cc1ccc(O)c(c1)Oc1ccc(cc1)C[C@@H]3N(C)CC2)CN(C)C4 | i | 3.5%[11.5 µM] | 15%[11.4 µM] | i | 2.2e-08
CCCC[C@H]1C[C@@H]1[C@@H]1N(P(=O)(c2ccccc2)c2ccccc2)[C@](CO)(c2ccccc2)CC12CC2 | x | 1.7% | u | x | x
O=C(NC1CCCc2ccccc21)c1cccnc1 (centres undefined) | i | -0.1% | x | i | 7.4e-09
Cc1ccc(-c2nc(S(=O)(=O)c3ccc(F)cc3)c(SCC(=O)NCC3CCCO3)o2)cc1 (centres undefined) | i | 0.3% | -2%[11.4 µM] | i | 1.5e-08
CCCCCn1c(CN2CCN(c3cccc(Cl)c3)CC2)nc2c1c(=O)[nH]c(=O)n2C | i | 0.5% | u | i | 1e-09
O=C(Nc1cccc(S(=O)(=O)C(F)F)c1)c1ccc(S(=O)(=O)N2CCOCC2)cc1 | i | 1.5% | -23% | i | 1e-09
COc1ccc(CCNC(=O)c2cnn(-c3ccc(C)c(C)c3)c2NC(=O)c2ccco2)cc1OC | i | 0.5% | 7% | i | 1.8e-09
CCOC(=O)CCc1c(C)nc(SCC(=O)O)c(C#N)c1C | i | 0.6% | -4% | i | 5.5e-09
CC1CN(CCC(=O)Nc2ccc3c(c2)CCC3)CC(C)O1 (centres undefined) | i | -0.6% | 1% | i | 2.6e-08
CCCNC(=O)OC[C@@H]1O[C@H](CCO/N=C\[C@@H](OC)[C@H](C)/C=C\CC(=O)OC)C=C[C@@H]1Oc1ccc(OC)cc1 | x | 1.0%[11.5 µM] | 11%[11.4 µM] | x | x
COc1cc2c(=O)nc3n(c2cc1OC)C(c1ccccc1)N=C(N)N3 (centres undefined) | i | -1.6% | -4% | i | 1e-08
CCC(C(=O)NC1CCCC1)N(C(=O)c1snc(C(N)=O)c1N)c1ccc2c(c1)OCCO2 (centres undefined) | i | -1.2% | u | i | 2.9e-08
Cc1ccc(C)c2[nH]c(=O)c(CN(CC3CCCO3)C(=O)NC3CCCCC3)cc12 (centres undefined) | i | 1.0% | u | i | 1.1e-08
CC1(C)CC(=O)C(C=NCCCn2ccnc2)=C(O)C1 | x | -1.0% | -2%[11.4 µM] | x | x
CCn1c(=O)c2cc(C(=O)N3CCCC3)sc2c2ccccc21 | x | -2.4% | -2% | x | x
COc1ccc(CCNC(=O)c2ccc(N3CCCC3=O)cc2)cc1OC | i | 1.7% | -3% | i | 1.1e-09
CC(C)CN(C)c1nc(N)c(C(=O)N=C(N)N)nc1Cl | i | -3.1% | u | i | 2.2e-08
C=CCNC(=O)c1c(N)n(-c2ccc3c(c2)OCO3)c2nc3ccccc3nc12 | i | 2.2% | -1% | i | 6.4e-09
O=c1c2[nH]c3ccccc3c2ncn1Cc1ccccn1 | i | 0.4% | 10% | i | 1e-09
COc1ccc(O)cc1 | x | 1.5% | -9% | x | x
Cc1cc(C)cc(OCc2ccc(C(=O)O)o2)c1 | i | -2.9% | 18% | i | 6.2e-09
CCN(CC)c1nc2ccccc2n2cnnc12 | i | -0.4% | x | i | 6e-09
Cc1ccc(Nc2nc(CSc3nnnn3-c3ccccc3)cc(=O)[nH]2)cc1 | i | 1.3% | 8% | i | 1.1e-08
C#Cc1ccc(C(=O)Nc2cc(C(N)=O)ccc2N2CCOCC2)cc1 | i | 1.2% | -1%[11.4 µM] | i | 1e-09
CCOC(=O)N1CCC(NC(=O)C2CCN(Cc3nc(-c4ccc(CC)cc4)oc3C)CC2)CC1 | x | -1.1% | 4% | x | x
COc1ccc(N(CN2C(=O)c3ccccc3C2=O)C(=O)C(C)C)cc1 | i | -0.3% | -5%[11.4 µM] | i | 3.5e-09
O=S(NCc1ccccc1)C12CC3CC(CC(C3)C1)C2 (centres undefined) | i | -2.0% | u | i | 2.9e-08
O=C(O)NCc1ccccc1 (tested in a mixture with another compound) | i | -0.2%[11.5 µM] | u | i | 1.7e-08
COc1ccc(C2CC(c3ccccc3Cl)Nc3ncnn32)cc1OC (centres undefined) | i | 0.8% | 3% | i | 5.1e-08
O=C(O)CSc1nc2c(c(=O)[nH]1)CCCC2 | i | -0.4% | -3% | i | 1e-09
Cc1cc(C)c(N2C(=NC(=O)CCCC(=O)O)SC3CS(=O)(=O)CC32)c(C)c1 (centres undefined) | i | -1.1% | 3% | i | 2.9e-09
Cc1ccccc1-c1nnc2s/c(=C\c3ccc(N(C)C)cc3)c(=O)n12 | i | 0.5% | -2% | i | 1e-09
O=C(NC1CCCCCC1)c1cc2n(n1)C(C(F)(F)F)CC(c1ccco1)N2 (centres undefined) | i | 0.3% | -9% | i | 4.8e-08
Cc1cc(C)c(C)c(OCc2nc(-c3cccnc3)no2)c1 | i | -2.7% | x | i | 1.2e-09
COc1cccc(OC)c1C(=O)N1CCN(Cc2ccccc2C)CC1 | x | -1.1% | 8%[11.4 µM] | x | x
O=C(CSc1nnc(CNC(=O)c2cccs2)o1)c1ccccc1 | i | 1.0% | 0%[11.4 µM] | i | 2.5e-08
COc1ccc(CCCc2nnc(SCC(=O)Nc3cc(C)c(C)cc3Br)o2)cc1 | i | 0.1% | u | i | 1e-09
CC(=O)Oc1ccccc1C1OC(=O)c2ccccc2N1C(C)=O (centres undefined) | i | x | x | i | 2e-08
COc1ccc(-n2c(O)c(C=NC3CC3)c(=O)[nH]c2=O)cc1 | i | 1.1% | u | i | 1e-09
COc1ccc(-n2c(SC)nc(O)cc2=O)cc1 | x | 0.0% | 6%[11.4 µM] | x | x
CCN(CC)CCNC(=O)CCn1c(=S)[nH]c2cc3c(cc2c1=O)OCO3 | i | 1.3% | 13% | i | 2.4e-09
O=c1c2[nH]c3ccc(F)cc3c2ncn1CCN1CCN(Cc2ccccc2)CC1 | x | 0.9% | -11% | x | x
CCOc1cc(C)nc(N2CCN(C3CCCCC3)CC2)n1 | i | -1.0% | -8% | i | 5.1e-08
O=C(c1cccc(F)c1)N1CCC2(CCCN(Cc3cc(C(F)(F)F)cc(C(F)(F)F)c3)C2)CC1 | i | 3.4% | u | i | 1e-09
Cc1cc(Cl)c(S(=O)(=O)NC2CCCCC2)cc1OCC(=O)Nc1nncs1 | i | -0.3% | u | i | 2.7e-09
N#CC1=C(N)Oc2n[nH]c(-c3cccs3)c2C1c1cccnc1 (centres undefined) | i | 0.2% | 11% | i | 2.3e-08
Cc1nc(N2CCN(Cc3ccccc3)CC2)nc2c1C(=O)CC(C)C2 (centres undefined) | i | 0.6% | x | i | 5.1e-09

Next records follow.
SMILES | A488 fluor | AID923 | TSHR agonist | Resorufin fluor | A647 autofl
FC(F)(F)c1ccccc1-c1cncnc1NCCN1CCOCC1 | i | 3.3% | -2% | i | 2.4e-08
O=C(COC(=O)c1cccnc1Nc1cccc(C(F)(F)F)c1)NCCN1C(=O)CSC1=O | i | 0.2% | 0% | i | 1.3e-09
CCN(CC)CCNC(=O)c1ccccc1N | i | x | x | i | 5.1e-09
COc1cc(-c2nnc3n2N=C(c2ccccc2)CS3)cc(OC)c1OC | i | 0.6% | x | i | 4.1e-08
CCCSc1nc2c(cnn2-c2ccccc2)c(=O)[nH]1 | x | 0.8% | u | x | x
O=C(O)c1c2ccccc2cc2ccccc12 | x | 2.7% | 5% | x | x
CCCCNC(=O)CC1N=C2c3ccccc3N=C(SCC(=O)Nc3ccccc3C)N2C1=O (centres undefined) | i | 1.7% | u | i | 1e-09
CN(Cc1nc2ccccc2n1C)S(=O)(=O)c1ccc(Cl)cc1 | i | -0.6% | u | i | 3.8e-09
Cc1cc(C)nc(NS(=O)(=O)c2ccc(NC(=O)CCCN3C(=O)c4ccccc4C3=O)cc2)n1 | x | -2.4% | 7%[11.4 µM] | x | x
Nn1c(SCc2nc3ccccc3[nH]2)nnc1C1CCCCC1 | i | 1.4% | 7% | i | 1e-09

These rows are one share of the data; the hit share may differ from the screen's.
